Compound activity (PubChem)
Yeast UUG start – yeast start codon fidelity modulation; S. cerevisiae UUG-firefly luciferase reporter, luminescence/redox ratio; activity score, % at 18.7 µM; 0.13% of 350,000 active;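 active = replicate mean at a twofold rise or more, about +100% in these data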;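 also: firefly luciferase made from a UUG start codon reports start codon fidelity; reporter light over untreated wells divided by growth signal over untreated wells; some hits fall short of that in this replicate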
Rce1 inh – yeast Ras-converting enzyme inhibition. yeast membranes, quenched prenylated peptide cleavage fluorescence. calls only. 0.27% of 290,000 active. AID 2563;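 active = fall in fluorescence gain of 50% or more versus controls, with final raw signal at or below 3038400; inconclusive = same 50% fall but final raw signal above 3038400; inactive = fall in fluorescence gain under 50%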;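 also: plate controls were neutral control wells for no effect and wells lacking membranes for full effect; tested at 10 µM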
CSC inhib – blocks cancer stem cells. 1.1% of 300,000 active. cancer stem cell-like cells viability, luminescence. inhibition, % at 7.5 µM;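 active = mean at 75% or more and at least half the replicates too; inconclusive = mean and replicates disagree; tested in HMLE shEcad cells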;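 also: 0% = median of negative and 100% = median of positive control wells; the first replicate is given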
eIF4H inh – inhibitors of RNA binding by human eIF4H | Q15056 | 0.94% of 290,000 active | inhibition, % at 35 µM | AID 2012 | eIF4H fluorescence polarization binding assay;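 active = 50% or more with normal probe brightness, or confirmed in later tests; inconclusive = above 50% with abnormal brightness, or retests that disagree; inactive = below 50% or failed in later tests; about a fifth of its hits are not listed in these tables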;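 also: calls also rest on retests at 20 µM and on dose response follow-up; 0% = protein and probe with vehicle and 100% = probe without protein; strong numbers were not always called active; many hits fall short of the cut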
PABP polyA inh – PABP-poly(A) binding inhibition; 1% of 290,000 active; P11940; inhibition, % at 35 µM; PABP-poly(A) RNA binding, fluorescence polarization;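 active = 50% or more with normal probe brightness, or confirmed in later tests; inconclusive = above 50% with abnormal brightness, or retests that disagree; inactive = below 50% or failed in later tests; about a fifth of its hits are not listed in these tables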;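 also: calls also rest on retests at 20 µM and on dose response follow-up; controls were probe without protein and protein plus probe with vehicle; some compounds called inactive have numbers as strong as hits; many hits fall short of the cut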
Target sequence (P11940 whole entry, looked up): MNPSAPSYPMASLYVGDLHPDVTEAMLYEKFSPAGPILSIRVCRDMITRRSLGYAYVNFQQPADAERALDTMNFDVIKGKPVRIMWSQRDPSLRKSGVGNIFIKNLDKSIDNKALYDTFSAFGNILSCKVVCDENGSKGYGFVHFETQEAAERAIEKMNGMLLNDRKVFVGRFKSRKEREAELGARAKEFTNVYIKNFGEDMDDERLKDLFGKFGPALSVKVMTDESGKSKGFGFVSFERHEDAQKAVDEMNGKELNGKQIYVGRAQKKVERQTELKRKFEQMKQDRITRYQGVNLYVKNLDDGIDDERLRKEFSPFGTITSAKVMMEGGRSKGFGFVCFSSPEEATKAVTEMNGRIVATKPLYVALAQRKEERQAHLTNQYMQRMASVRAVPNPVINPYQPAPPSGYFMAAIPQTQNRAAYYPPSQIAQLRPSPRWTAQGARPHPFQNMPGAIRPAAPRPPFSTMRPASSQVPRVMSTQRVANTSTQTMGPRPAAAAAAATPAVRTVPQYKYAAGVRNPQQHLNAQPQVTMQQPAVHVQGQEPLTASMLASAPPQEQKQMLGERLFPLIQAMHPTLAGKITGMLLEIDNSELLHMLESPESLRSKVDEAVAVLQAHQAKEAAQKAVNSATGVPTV
MT1-MMP act inh – blocks activation of human MT1-MMP; AID 651647; 0.061% of 360,000 active; HT1080 RFP-PRO-GFP cells, GFP/RFP ratio fluorescence, overnight; percent of plate control window, DMSO zero; P50281; GFP/RFP ratio change, % at 20 µM;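 active = GFP/RFP ratio change of at least 30% with cell ATP level not reduced by more than half and red fluorescence within 50% of control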; also: strong numbers were not always called active
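Test system: HT1080 RFP-PRO-GFP cells; Benchmarks: DMSO and RFP-L50D-GFP cell wells; Timing: cells overnight before dosing, compound overnight, 37 °C, 5% CO2; Compound: one 20 µM compound dose with 1% DMSO; Read-out: GFP/RFP fluorescence ratio.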
Env fusion inh – inhibitors of HIV Env-mediated cell fusion. HeLa-JRFL Env/CEM21 cell fusion, luciferase. inhibition, % at 12.3 µM. 1.1% of 360,000 active. AID 651610;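 active = mean replicate inhibition score of at least 50 and every replicate individually at or above 50; inconclusive = only one of the two criteria met; inactive = mean below 50 and not all replicates reaching 50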;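 also: 0% = plate neutral controls and 100% = maraviroc near 300 nM; one replicate is shown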
eIF4H inh retest – also measured in eIF4H inh; calls as there; inhibition, %; compound at 20 µM; confirmation average;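 mean of two retest wells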
PABP polyA inh retest – further read-out of PABP polyA inh, marked with its call; inhibition, %; compound at 20 µM; confirmation repeats;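 mean of two retest wells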
MT1-MMP act inh RFP – further read-out of MT1-MMP act inh, marked with its call; RFP signal change, %; measured here: RFP expression control read;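 0 = vehicle wells; hits needed this value within 50% of zero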
The depositor's hits bear a star; i = inactive; u = inconclusive; x = not tested or not shown.

SMILES	Yeast UUG start	Rce1 inh	CSC inhib	eIF4H inh	PABP polyA inh	MT1-MMP act inh	MT1-MMP act inh RFP	Env fusion inh	others
CCn1cc(C(=O)N2CCN(Cc3ccc4c(c3)OCO4)CC2)c(=O)c2ccc(C)nc21	-2	i	-6	-1	-1	4	3	x
COc1cccc(C(=O)Nc2ccc(S(=O)(=O)N3CCCCC3)cc2)c1OC	-17	i	3	1	4	0	-3	-38
COC(=O)C1=C(O)/C(=C\c2ccc(OCC(=O)Nc3ccccc3OC)cc2)N=C1C	-7	i	-8	31	22	-1	0	0
Cc1cc(Nc2ccc(F)cc2)n2nc(C)nc2n1	-8	i	13	-4	-6	2	6	-7
CCOC(=O)C(CC)n1cnc2c(nnn2-c2cccc(OC)c2)c1=O (stereo unspecified)	-17	i	20	-2	0	-1	3	-5
COC(=O)C1=C(C)NC2=C(C1c1ccc(O)cc1)S(=O)(=O)c1ccccc12 (stereo unspecified)	3	i	10	-4	-15	3	2	x
CC(=O)Nc1ccc(S(=O)(=O)Nc2ccc(S(=O)(=O)Nc3ncccn3)cc2)cc1	-2	i	0	-4	9	2	6	15
CN(CC(=O)Nc1ccc(Cl)c(Cl)c1)C1CCCCC1	-10	i	-7	-9	1	2	7	28
COc1cccc(NC(=O)CSc2nnnn2C2CCCCC2)c1	0	i	x	-1	9	1	-2	5
OCCC1CN(Cc2cnn(-c3ccc(F)cc3)c2)CCN1Cc1ccsc1 (stereo unspecified)	x	i	25	-1	-3	4	3	4
O=C(CC12CCC(CC1)C2)NCc1ccc2c(c1)OCO2	-9	i	-2	4	1	-1	-1	-63
COc1cc(C(=O)CSc2nncn2C)cc(OC)c1OC	-13	i	8	-5	1	5	4	x
CC(/C=C/c1ccc2c(c1)OCO2)=N/NC(=O)COc1ccc(C)cc1	x	i	2	-14	7	0	2	-20
COc1ccc(-n2c3c(cc(C(=O)Nc4ccc(C)cc4)c2=O)C(=O)CCC3)cc1	-8	i	-5	x	x	-1	1	x
CCCCNC(=O)c1cc2c(=O)n(CC)c3ccccc3c2s1	-3	i	21	9	-2	7	3	-7
CC(=O)c1ccc(NC(=O)CN2C(=O)/C(=C/C=C/c3ccccc3)SC2=S)cc1	-24	i	18	-3	-1	6	13	8
COc1cccc(-c2nc3ccc(C(=O)N4CCCC(O)C4)cc3o2)c1 (stereo unspecified)	-14	i	12	1	-3	5	2	-39
COc1ccc(N2CCN(C(=O)c3ccc(CS(=O)Cc4ccc(Cl)cc4)o3)CC2)cc1 (stereo unspecified)	5	i	-6	12	6	0	0	-20
COC(=O)c1cc2c(-c3ccccc3)cc3ccccn3c-2c1C(=O)OC	2	i	-1	u	109*	-11	4	x	PABP polyA inh retest=93*
COc1ccc(CNC(=O)c2cccc3c2C(=O)N(Cc2cccnc2)C3)cc1	-10	i	-12	-4	-1	5	-1	x
CN(C(=O)COC(=O)C1CSC2(C)CCC(=O)N12)c1ccccc1 (stereo unspecified)	-39	i	-13	x	x	-1	-3	x
Cc1ccc(-n2c3c(cc(C(=O)N4CCN(C)CC4)c2=O)C(=O)CC(C)(C)C3)cc1	-14	i	-13	8	5	2	10	-5
Cc1cc(N)n(-c2ccccc2C)n1	x	i	-9	2	-2	5	2	14
Cc1csc2c(N3CCN(C(=O)c4ccc(C(C)(C)C)cc4)CC3)ncnc12	x	i	4	-22	6	2	-25	26
CN(C)c1ccc(C(CNC(=O)c2ccco2)N2CCCC2)cc1 (stereo unspecified)	-19	i	-11	-10	-11	-1	2	-14
COC(=O)c1c(NC(=O)c2nc3nc(C)cc(C(F)F)n3n2)sc2c1CCC2	-18	i	6	-4	-2	8	5	-88
CCOC(=O)CNC(=O)CSc1nnc(-c2ccc(OC)cc2)n1CC	12	i	x	-10	4	-6	-8	-6
Cc1ccsc1/C=N\NC(=O)Cn1nnc2ccccc21	x	i	54	1	5	1	-1	-25
COC(=O)CCCCCCCCC(O)CN(C)C (stereo unspecified)	-3	i	-13	-4	13	-2	0	12
O=C(CSC(=O)c1ccccc1)Nc1ccccc1F	-8	x	-17	x	x	-4	0	-4
CC(=O)c1sc(NC(=O)COc2ccc(C(C)C)c(C)c2)nc1C	-3	i	14	-10	8	3	-6	-7
C/C(=N\NC(=O)c1cccs1)c1c(O)cc(C)oc1=O	-2	i	-2	-9	7	1	4	-6
O=C(Nc1cccc([N+](=O)[O-])c1)N1CCN(c2ccccc2)CC1	-9	i	-3	-10	-6	8	-1	-2
Cc1cc2oc(=O)cc(CN3CCCCC3)c2cc1C(C)C	-2	i	-12	-11	-2	-6	-4	-4
Cc1cc(C)c(S(=O)(=O)Nc2c(C)[nH]c(=O)[nH]c2=O)c(C)c1	-6	i	3	2	1	-5	-1	x
CCOc1cc(CN2CCCCC2)ccc1OC	-14	i	-2	7	-3	0	0	-87
COc1ccc(NC(=O)CN(C)S(=O)(=O)c2ccc(Br)s2)cc1OC	-17	x	-4	3	3	-3	-1	5
Cc1cc(NS(=O)(=O)c2ccc(NC(=S)NC(=O)c3ccc(Cl)cc3Cl)cc2)no1	-4	i	5	-8	-5	0	-3	x
COc1ccc(NC(=O)C2=C(C)NC(=O)NC2c2ccccc2[N+](=O)[O-])cc1 (stereo unspecified)	-8	i	0	4	14	-3	-7	-13
COc1cccc(CNC(=O)C2CCN(S(=O)(=O)c3ccc4c(c3)CC(C)N4C(=O)C3CC3)CC2)c1 (stereo unspecified)	x	i	-4	-2	-1	-10	-28	11

Three successive compounds from above, for reference:
SMILES	Yeast UUG start	Rce1 inh	CSC inhib	eIF4H inh	PABP polyA inh	MT1-MMP act inh	MT1-MMP act inh RFP	Env fusion inh	others
Cc1cc(NS(=O)(=O)c2ccc(NC(=S)NC(=O)c3ccc(Cl)cc3Cl)cc2)no1	-4	i	5	-8	-5	0	-3	x
COc1ccc(NC(=O)C2=C(C)NC(=O)NC2c2ccccc2[N+](=O)[O-])cc1 (stereo unspecified)	-8	i	0	4	14	-3	-7	-13
COc1cccc(CNC(=O)C2CCN(S(=O)(=O)c3ccc4c(c3)CC(C)N4C(=O)C3CC3)CC2)c1 (stereo unspecified)	x	i	-4	-2	-1	-10	-28	11

Other structures:
SMILES	Yeast UUG start	Rce1 inh	CSC inhib	eIF4H inh	PABP polyA inh	MT1-MMP act inh	MT1-MMP act inh RFP	Env fusion inh	others
O=C(c1ccc(S(=O)(=O)Nc2ccccc2F)cc1)N1CCCCCC1	5	i	-6	x	x	5	-3	-12
CCOC(=O)Cn1c(=O)oc2cc(S(=O)(=O)NCC3CCCO3)ccc21 (stereo unspecified)	16	i	-5	-2	4	-1	5	-13
N#Cc1ccc(CSc2nnc(-c3ccccc3)n2Cc2ccco2)cc1	-8	i	-13	-6	-2	-4	-11	x
Cc1cc(-c2nnn(CCCOC(C)(C)C)c2C)ccc1-c1cn(CCCOC(C)(C)C)nn1	-8	x	x	x	x	-5	-21	32
O=C(COc1ccccc1)Nc1nnc(S(=O)(=O)N2CCCCC2)s1	-8	i	4	-7	-2	3	4	4
Cc1nc2ccc(S(=O)(=O)NC(C(=O)N3CCC(C)CC3)C(C)C)cc2s1 (stereo unspecified)	3	i	-9	2	-1	0	5	-6
O=C(c1ccccc1)C1CCN(C(=O)c2cccs2)CC1	x	i	-11	-2	-5	0	-3	22
COc1ccc(C)cc1S(=O)(=O)Nc1ccc2c(c1)N(C(C)=O)CCC2	-15	i	x	x	x	7	-13	13
CCCCOC(=O)n1c(=O)oc2ccccc21	-5	i	5	-4	2	7	1	x
Cc1ccc2c(c1)nnn2C1CCN(S(=O)(=O)c2ccc3ccccc3c2)CC1	1	i	6	-9	-17	5	-7	25
CC1CCc2c(sc(NC(=O)c3ccc(Cn4cc([N+](=O)[O-])cn4)o3)c2C#N)C1 (stereo unspecified)	-16	i	20	76*	22*	3	-2	-28	eIF4H inh retest=58*;PABP polyA inh retest=55*
CO/N=C/C(=N\Nc1ccccc1)C(=O)c1ccccc1	x	i	18	2	-3	-4	0	4
CCOC(=O)Cc1csc(NC(=O)c2c(O)c3ccccc3n(CC(C)C)c2=O)n1	0	i	28	4	0	0	-6	x
CCS(=O)(=O)N1CCN(CC(=O)NC2CCCCC2)CC1	x	i	0	-9	14	1	1	11
c1ccc2c(c1)-c1cccc3cncc-2c13	-6	x	x	x	x	-5	-2	13
Cc1ccc(S(=O)(=O)N2CCC[C@H]2C(=O)OCC(=O)c2ccc3c(c2)NC(=O)CO3)cc1	11	i	-1	-4	8	0	-1	4
C=CCn1c(SCC(=O)c2c(N)n(C3CC3)c(=O)[nH]c2=O)nnc1-c1ccccc1OC	-19	x	x	x	x	3	1	4
COc1cc2c(cc1OC)[C@H](C)N(C(=S)Nc1ccc(F)cc1)CC2	-22	i	-13	-8	-3	2	1	5
C/C(=N\NC(=O)c1ccccc1N)c1ccc(NC(=O)Cc2ccccc2)cc1	-13	i	-7	3	-11	3	4	13
CC(C)(C)c1ccc(CSc2ccc(S(=O)(=O)N3CCOCC3)cn2)cc1	-14	x	56	x	x	-3	-7	12
Cc1ccc(-c2cc(C(=O)Nc3cccnc3)c3ccccc3n2)s1	-2	i	-14	-1	7	2	1	-39
CCOc1ccccc1Nc1nc(N)nc(CSc2nccc(C)n2)n1	-1	i	x	1	5	9	8	-93
COc1ccc(CNC(=O)CN2CCN(S(=O)(=O)c3c(C)c(C)cc(C)c3C)CC2)cc1OC	-2	x	6	x	x	-2	-5	x
O=C(Cc1n[nH]c(=O)c2ccccc12)OCc1c(Cl)cccc1Cl	1	i	32	-7	3	-4	-5	-24
COc1ccc(C(=O)NCc2cccc(Cl)c2)cc1S(=O)(=O)N1CCOCC1	-10	x	x	x	x	2	1	-14
COC(=O)Cn1c(=NC(=O)c2cc(OC)c(OC)c(OC)c2)sc2cc(OC)ccc21	-13	i	-26	-6	-8	4	0	4
CC1=CC2=NC(=O)/C(=C\c3cc(C)n(-c4ccccc4)c3C)C(=N)N2O1	-17	i	1	30	-3	-4	3	16
CCOC(=O)C1CCN(C(=O)Cn2cnc3sc(C)c(S(=O)(=O)N4CCOCC4)c3c2=O)CC1	-6	i	-3	-4	-2	-1	3	6
CCOC(=O)Cn1c(Br)nc2c1c(=O)[nH]c(=O)n2C	-4	i	-5	2	0	-1	3	-40
COc1ccc2oc(C(=O)OCC(=O)NC(=O)NC(C)C)c(C)c2c1	5	i	1	-5	-8	5	0	-59
CC(=O)N1c2ccccc2N2C(c3c(C)c(C)cc(C)c3C)=NON12	x	x	x	2	6	-6	-4	-1
O=C(O)Cn1ncc2c1-c1ccoc1CC2	7	i	-10	8	6	1	3	x
CN1C(=O)c2ccc(NC(=O)c3c(C(=O)O)cccc3[N+](=O)[O-])cc2C1=O	-6	i	10	-12	-2	2	4	-11
CCOC(=O)N1CCC(NC(=O)Cn2ncc3c2-c2cc(C)ccc2OC3)CC1	-17	i	x	-2	7	2	3	19
O=C1NCCC12C(=O)Nc1ccccc12 (stereo unspecified)	-21	i	-10	x	x	4	7	x
COc1ccc(Nc2nc(Nc3ccc(OC)cc3)nc(SC3=NCCS3)n2)cc1	-21	i	-19	6	-10	-2	-5	-82
CCCCCCCC/C=C\CCCCCCCC(=O)NCCc1ccc(O)c(O)c1	-19	x	100*	x	x	-29	-24	-57
COc1ccc(S(=O)(=O)Nc2ccccc2OC)cc1N=Nc1c(O)[nH]c(=S)[nH]c1=O	-9	x	23	x	x	3	-8	-9
COc1ccc(S(=O)(=O)NC2CC(C)(C)NC(C)(C)C2)cc1C(C)C	x	i	6	-6	4	-5	-3	-20
